From PubChem BioAssay
VACV Venus inh: inhibitors of vaccinia virus (Venus reporter) | Vaccinia virus Venus reporter expression, fluorescence | Potency, µM (top dose mostly 36.5 µM), for inactives: top-dose activity change, negative = inhibition, actives largely listed as inhibitors | 0.46% of 330,000 active; active means well fitted inhibition curve with a large enough effect; inconclusive means small, poorly fitted or top-dose-only effect; inactive means no such curve, though single readings can be large or run the other way; tested in A549 cells; also: nearly all actives have a fitted effect of over 30% in size; inactives centre near -10
VACV mCherry inh: inhibitors of vaccinia virus infection (mCherry reporter signal) | Vaccinia virus mCherry reporter infection, fluorescence; about a quarter of the inactives have no number | Potency, µM (titrated, usually from 36.5 µM), inactives show top-dose activity change, negative = inhibition, actives largely listed as inhibitors | 0.63% of 310,000 active | AID 720579; active = well fitted inhibition curve with a large enough effect; inconclusive = small, poorly fitted or top-dose-only effect; inactive = no such curve, though single readings can be large or run the other way; tested in A549 cells; also: nearly all actives have a fitted effect of over 35% in size; inactives centre near -10
Numbers without * were called inactive; i = inactive; ? = inconclusive; · = no result given; [ ] = dose if it differs, or a comment. % is scaled to controls: 0 for no effect and ±100 for the full control effect; potency is read from the fitted curve at half-maximal effect.

SMILES | VACV Venus inh | VACV mCherry inh
COCCN(C(=O)COC(=O)CCC(=O)c1ccc(C)cc1)c1c(N)n(Cc2ccccc2)c(=O)[nH]c1=O | -11% | i
O=C(Nc1ccc(S(=O)(=O)Nc2ncccn2)cc1)c1cnc(Cl)c(Cl)c1 | 4% | i
COc1ccccc1C(=O)COC(=O)CCCN=C1NS(=O)(=O)c2ccccc21 | -3% | -14%
Cc1ccc(-c2cn3c(n2)sc2cc(C(=O)NCCCN4CCCCC4)ccc23)cc1 | 8.9µM* | 11µM*
C[C@H]1Oc2ccccc2C(=O)C1C(=O)c1ccccc1 (some centres undefined) | 2% | i
CC(C)=CCC/C(C)=C/CNC(=O)C[C@H]1C[C@H](C(=O)N2CCCCC2)[C@@]2(CCc3ccccc3)c3[nH]c4ccc(Cl)cc4c3CCN2C1=O | -28% | i
CCOc1ccc(NC(=O)CCc2nnc3n(C)c(=O)c4sccc4n23)cc1 | -10% | -2%
CC(=O)Oc1ccc(OC(C)=O)c2c1CC1(C)OC1(C)C2 (centres undefined) | -13% | -5%
COc1cc(NC(=O)C2CCCCC2)c2ncccc2c1 | -8% | ·
CN1CCN(c2ccnc(-c3cccc(NS(C)(=O)=O)c3)n2)CC1 | -12% | -4%
Cc1cc(C)c(C(=O)Nc2ccccc2)c(CC(C)(C)C(=O)O)c1 | -23% | i
COc1ccccc1NC(=O)N1CCc2[nH]c3ccc(Cl)cc3c2C1 | ? | ?
CCc1nn(CC(=O)N2CCCCC2)c(=O)c2cc3occc3n12 | 4% | -4%
COc1ccc(OC)c(NC(=O)C2(C)CCN2C(=O)Cc2ccc(Cl)cc2Cl)c1 (centres undefined) | 2% | 39%[activator]
CCN=c1sc(C(=O)NCCc2ccccc2)cc(=O)n1CC | -26% | -28%
COC(=O)C1=C(C)NC(C)=C([N+](=O)[O-])[C@H]1c1ccccc1C(F)(F)F | -13% | 11%
CC(/C=N/N1CCN(c2ccccc2)CC1)=C\c1ccco1 | -9% | -14%
COC(=O)c1sc(N(C)C)c(C#N)c1-c1ccccc1 | -1% | i
Cc1cc(C)cc(NC(=O)CN2CCN(c3ccccn3)CC2)c1 | -5% | i
Cc1cc(Nc2ccc(C(C)C)cc2)nc(-n2nc(C)cc2C)n1 | -10%[7.34 µM] | -9%[7.34 µM]
Cc1nc(/C=C\C(=O)O)c2cc(C)oc2n1 | -11% | -14%
O=S(=O)(/C=C/c1ccccc1)N1CCN(c2nc(-c3cccnc3)nc3ccccc23)CC1 | -1% | i
COC(=O)CN(c1ccc(C)cc1)S(=O)(=O)c1c(C)[nH]c(=O)[nH]c1=O | -7% | i
Cc1[nH]cc(Br)c(=O)c1Oc1ncc(C(F)(F)F)cc1Cl | -6% | i
Cc1ccc(S(=O)(=O)/N=C(/c2ccccc2)N(C)c2ccc(O)cc2)cc1 | -19% | -2%

More entries follow.
SMILES | VACV Venus inh | VACV mCherry inh
C[C@@H]1CCCCO[C@H](CN(C)C(=O)Cc2ccccc2)[C@@H](C)CN([C@H](C)CO)C(=O)c2cc(N(C)C)ccc2O1 | -10% | -24%
C#CCOCCOCCOCCNc1nc(N2CCOCC2)nc(N2CCN(C(=O)[C@H]([C@@H](C)CC)n3cc([C@@H](N)CC(C)C)nn3)CC2)n1 | -16% | -12%
CCCC(CCC)C(=O)OC[N+](C)(C)CCOC(=O)C(O)(c1ccccc1)C1CCCC1 (centres undefined) | -17% | i
C[C@H]1CN([C@@H](C)CO)C(=O)CCCn2nncc2CO[C@@H]1CN(C)C(=O)Nc1ccc2c(c1)OCO2 | -8% | ?
CC(=O)c1ccc(C(=O)NC2CCCN(Cc3ccc(Cl)cc3)C2)s1 (centres undefined) | -18% | -6%
CC1CCN(c2c(NCC3CCC(C(=O)NCc4ccccc4)CC3)c(=O)c2=O)CC1 (centres undefined) | -1% | 34%
Cc1cc2ccccc2n1-c1ccc(C(=O)N2CCCCC2)s1 | -7% | -7%
CN(C)c1ccc(C(=S)NCc2ccco2)cc1 | -8% | ·
Oc1cccc2oc(=S)[nH]c12 | 9% | i
CCOc1ccccc1NC(=O)CC1(CC(=O)N2CCOCC2)CCCC1 | -6% | -14%
Cc1ccc(N(CC(=O)NCc2ccccc2)C(=O)CCC(=O)Nc2nccs2)cc1 | -8% | -6%
COc1cccc(N2CC(NC(=O)c3ccc(S(=O)(=O)N4CCCC4)cc3)CC2=O)c1 (centres undefined) | 0%[7.34 µM] | -1%[7.34 µM]
Cc1cccc(-c2c3c(=O)n(C)c(=O)n(C)c3cn2-c2ccccc2O)c1 | -18% | -8%
Cc1ccc(-c2cc(C(=O)N3CCN(S(=O)(=O)c4ccc(Br)cc4)CC3)[nH]n2)cc1C | ? | -30%
COC(=O)[C@@]12C[C@@H](CC(=O)NCc3cccc(C(F)(F)F)c3)C(=O)N(Cc3cccc4ccccc34)C1=CCC(C)(C)C2 | ? | ?
Cc1ccc(S(=O)(=O)/N=C(/c2ccccc2)N2CCOCC2)c(C)c1 | -23% | -4%
O=C(NCc1ccc(F)cc1)c1cc2n(n1)CCCN(Cc1ccc(F)cc1)C2=O | 0% | -6%
CCOC(=O)C1=CN(Cc2ccco2)S(=O)(=O)N(CC)C1c1ccccc1 (centres undefined) | 0% | i
c1ccc(Nc2nc(N3CCCCC3)nc(N3CCNCC3)n2)cc1 | -16% | -8%
CCN(CC)CCn1c(SCC(=O)NCc2ccco2)nc2c(sc3ccccc32)c1=O | -6% | -12%
O=C(NNc1cc(Cl)cc(Cl)c1)c1sccc1Cl | -15% | -18%
CC(NC(=O)C1CCCCC1)C(c1cccs1)N1CCOCC1 (centres undefined) | -8% | i
Cc1ccc(-c2nn(-c3cc(N4CCNCC4)ccc3[N+](=O)[O-])c(=O)c3ccccc23)cc1 | -19% | -15%
O=C(NCCc1ccccc1)C1CCC(CNS(=O)(=O)c2ccc(Cl)cc2)CC1 (centres undefined) | -12% | -19%
O=C1NC(=O)C(CCc2ccncc2)(CCc2ccncc2)C(=O)N1CCc1ccccc1 | -7% | i

Later entries
SMILES | VACV Venus inh | VACV mCherry inh
CCOc1ccc(NC(=O)CSc2nnc3c(C)cc4ccccc4n23)cc1 | 8% | -2%
COc1ccc(C(Nc2ccc(S(=O)(=O)N3CCOCC3)cc2)C(=O)NCCC(C)C)cc1OC (centres undefined) | -4% | -5%
COc1ccc(NC(=O)c2cncc(Br)c2)c(S(=O)(=O)N2CCOCC2)c1 | -13% | ·
Cc1cc(C)cc(N2C(=O)CC(Sc3nnnn3-c3ccccc3)C2=O)c1 (centres undefined) | -13% | -19%
O=C(Nc1ccc(S(=O)(=O)N2CCCC2)cc1)C1CC(=O)N(CCc2ccccc2)C1 (centres undefined) | -16% | -1%
O=C1CCC(=O)N1CN(C(=O)c1ccco1)c1ccccc1 | -11% | i
O=C(c1cccc(S(=O)(=O)N2CCCCC2)c1)N1CCc2ccccc21 | -19% | i
Cc1ccccc1CC1(CO)CCCN(Cc2ccccc2Cl)C1 (centres undefined) | -8% | -15%
CCOC(=O)C1=NN(c2ccccc2)C2=NC(C)=C(C(=O)OC)C(c3ccc(C)cc3)N12 (centres undefined) | -8% | -18%
COc1ccc(/C=C(\C#N)c2nc3ccc(C)cc3[nH]2)cc1Oc1ccc(C(F)(F)F)cc1[N+](=O)[O-] | -5% | -9%
CCOC(=O)c1ccc2[nH]c(-c3ccc(S(=O)(=O)F)cc3)cc(=O)c2c1 | -29% | -13%
COc1ccc(CCNC(=O)c2ccc3c(c2)CCN3S(=O)(=O)c2ccc(C)cc2)cc1OC | ? | ?
CC(C)COc1ccc(C(=O)NCc2ccco2)cc1 | -20% | -24%
COC(=O)c1ccccc1NC(=S)N(Cc1ccc2c(c1)OCO2)Cc1cc2ccc(OC)cc2[nH]c1=O | -27% | -27%
O=C1CC(NCc2ccc3c(c2)OCO3)C(=O)N1CCc1ccccc1 (centres undefined) | -5% | -13%
O=C(/C=C/c1cccs1)c1ccc([N+](=O)[O-])cc1 | -6% | -14%
CC(C)(C)c1cc(NCCCn2ccnc2)n2ncc(-c3ccc(Cl)cc3)c2n1 | ? | ?
O=C(NC(=S)Nc1ncc(Br)cc1Br)c1ccccc1 | -5% | 14%
O=C(CN1CCC(Cc2ccccc2)CC1)NC(=O)NC1CCCCC1 | -8% | -13%
CN(C)c1ccc(C2=NOC(CN3C(=O)c4ccccc4S3(=O)=O)C2)cc1 (centres undefined) | 6% | -5%
CCC(=O)N1CCc2cc(S(=O)(=O)CCC(=O)N(C)c3ccc(OC)cc3)ccc21 | -2% | -1%
CC(=O)c1ccc(NS(=O)(=O)c2ccc3ccccc3c2)cc1 | -14% | -11%
O=C(Cn1cnc2c(NCc3ccccc3)ncnc21)NCCCN1CCCC1=O | 3% | i
COc1ccc2c(CNCc3cccs3)c(C(=O)O)n(Cc3ccccc3F)c2c1 | -6% | -5%
Brc1cccc[n+]1Cc1ccc(C[n+]2ccccc2Br)cc1 | -10% | i

Following part:
SMILES | VACV Venus inh | VACV mCherry inh
O=[N+]([O-])c1cccc(/C=N/n2c(-c3cccnc3)n[nH]c2=S)c1 | -8% | -13%
CCCCn1c(O)c(C(C)=NCc2ccc3c(c2)OCO3)c(=O)[nH]c1=O | -17% | i
COc1cccc(NC(=O)CN(C)C(C)C(=O)N2CCCCC2)c1 (centres undefined) | -9% | -12%
O=C(NCCc1ccc(Cl)cc1)C1COc2ccccc2O1 (centres undefined) | -7% | -22%
O=C(c1ccc(NC(=S)Nc2ccc(F)cc2F)cc1)N1CCOCC1 | -11% | i
Cc1nc(C)c(C(=O)N(c2ccc(F)cc2)C(C(=O)NCC2CCCO2)c2ccccc2)s1 (centres undefined) | -10% | -17%
O=[N+]([O-])c1cccc(S(=O)(=O)N/N=C\c2ccc3c(c2)OCO3)c1 | -11% | i
O=C(CSc1n[nH]c(-c2ccccc2)n1)NCCc1ccccc1 | -7% | -7%
O=C(OC1CC2CC1[C@H]1CCCCN1C2=O)N1CCOCC1 (some centres undefined) | 4% | 34%[activator]
CCN(C(=O)CSc1nnnn1-c1ccc(Cl)cc1)C1CCS(=O)(=O)C1 (centres undefined) | -9% | i
C#CCNC(=O)C1=C[C@H](c2ccc(Br)cc2)[C@@H](CCCO)[C@H](OCC)O1 | -21% | -1%
O=C(O)Cn1cc(C(=O)C2CC2)c2ccccc21 | -8% | -5%
Cc1cc2nc(-c3cccc(Br)c3)c(CC3CCCCC3)n2c(C)c1Br | 12% | 21%
COCCn1c(SCC(=O)NCCc2ccc(OC)c(OC)c2)nc2c([nH]c3ccccc32)c1=O | -12% | -14%
CC(O)(c1ccccc1)C(C(c1ccccc1)N1CCOCC1)N1CCOCC1 (centres undefined) | 0% | -10%
COCCNC(=O)C1Cc2c(ccc3ccccc23)O1 (centres undefined) | -13% | -17%
O=C(Cc1c(F)cccc1Cl)Nc1ccon1 | -6% | -4%
COc1ccc(Br)cc1/C=N/NC(=O)c1nc(-c2ccccc2)n2c1CCCCC2 | -3% | -12%
COc1ccc(Nc2cc(Cl)nc(N)n2)cc1OC | -10% | i
O=C(O)c1ccc([N+](=O)[O-])c2c1C(=O)c1ccccc1C2=O | 11% | i
CNC(=O)C[C@H]1C(=O)N(c2ccccc2)C[C@@H]1CSC | -7% | i
CC(=O)Nc1cc(C(=O)c2ccccc2)ccc1N1CCOCC1 | -14% | i
COc1ccc(-c2nc(SCc3cc(=O)c4cc(C)ccc4[nH]3)n[nH]2)cc1 | -15% | -19%
COc1ccc(C)cc1S(=O)(=O)N(CC(=O)Nc1cc([N+](=O)[O-])ccc1C)c1ccc(C)c(C)c1 | -11% | -10%
NC(=O)CSc1nc2c(oc3ccccc32)c(=O)n1-c1ccccc1F | 1% | 3%
CCc1nc(=O)c(-c2ccccc2)c(C)n1-c1ccccc1 | -1% | -16%
CCOC(=O)Cc1csc(NC(NC(=O)OCC)(C(F)(F)F)C(F)(F)F)n1 | -13% | -15%
O=S(=O)(Nc1ccc(N2CCOCC2)cc1)c1ccc(F)cc1F | 3% | -1%
CNc1c(NC(=O)c2ccc3c(c2)OCO3)c(=O)oc2ccccc12 | -18% | -13%
CCN(CC(=O)NCc1ccc(Cl)cc1)C(=O)COc1ccc(C)cc1C | ? | -14%

Filtered by structure, those above containing fluorine.
SMILES | VACV Venus inh | VACV mCherry inh
COC(=O)C1=C(C)NC(C)=C([N+](=O)[O-])[C@H]1c1ccccc1C(F)(F)F | -13% | 11%
Cc1[nH]cc(Br)c(=O)c1Oc1ncc(C(F)(F)F)cc1Cl | -6% | i
COC(=O)[C@@]12C[C@@H](CC(=O)NCc3cccc(C(F)(F)F)c3)C(=O)N(Cc3cccc4ccccc34)C1=CCC(C)(C)C2 | ? | ?
O=C(NCc1ccc(F)cc1)c1cc2n(n1)CCCN(Cc1ccc(F)cc1)C2=O | 0% | -6%
COc1ccc(/C=C(\C#N)c2nc3ccc(C)cc3[nH]2)cc1Oc1ccc(C(F)(F)F)cc1[N+](=O)[O-] | -5% | -9%
CCOC(=O)c1ccc2[nH]c(-c3ccc(S(=O)(=O)F)cc3)cc(=O)c2c1 | -29% | -13%
COc1ccc2c(CNCc3cccs3)c(C(=O)O)n(Cc3ccccc3F)c2c1 | -6% | -5%
O=C(c1ccc(NC(=S)Nc2ccc(F)cc2F)cc1)N1CCOCC1 | -11% | i
Cc1nc(C)c(C(=O)N(c2ccc(F)cc2)C(C(=O)NCC2CCCO2)c2ccccc2)s1 (centres undefined) | -10% | -17%
O=C(Cc1c(F)cccc1Cl)Nc1ccon1 | -6% | -4%
NC(=O)CSc1nc2c(oc3ccccc32)c(=O)n1-c1ccccc1F | 1% | 3%
CCOC(=O)Cc1csc(NC(NC(=O)OCC)(C(F)(F)F)C(F)(F)F)n1 | -13% | -15%
O=S(=O)(Nc1ccc(N2CCOCC2)cc1)c1ccc(F)cc1F | 3% | -1%
